Source: PubChem BioAssay (National Center for Advancing Translational Sciences (NCATS))
StopGo reporter: lowers the luciferase signal of an FMDV 2A StopGo reporter; hit rate 1.2% among 410,000; Potency, µM (highest dose often 57.9 µM), for inactives: top-dose signal change, negative = less light; human cells with a luciferase reporter of 2A StopGo recoding; control for the full effect not named in the record; active = well fitted falling curve with a large enough effect; inconclusive = small, poorly fitted or top-dose-only effect; inactive = no such curve, though single readings can be large or run the other way; tested in HEK293T cells; note: % is set by controls: 0 for no effect and ±100 for the full control effect; nearly all actives have a fitted effect of over 45% in size; luciferase light after 4 h
Marburg entry inh: blocks Marburg virus binding to or entry into cells; Marburg virus pseudotyped entry inhibition, cell reporter; control for the full effect not named in the record; about a third of the inactives were read at about 46 µM; Potency, µM (series often up to 37.8 µM), without a hit: at the top dose activity change, negative = inhibition, actives largely listed as inhibitors; hit rate 1.8% among 300,000; AID 540276; active = well fitted inhibition curve with a large enough effect; inconclusive = small, poorly fitted or top-dose-only effect, or effect the other way; inactive = flat fitted curve, though single readings scatter; tested in HEK293 cells; about a fifth of its hits are not listed in these tables; note: % is set by controls: 0 for no effect and ±100 for the full control effect; luciferase read-out
LASV entry inh: inhibitors of Lassa virus binding or cell entry; Lassa virus pseudotype entry inhibition, cell reporter; control for the full effect not named in the record; Potency, µM (top dose mostly 37.9 µM), for inactives: at the highest dose activity change, negative = inhibition, usual class: inhibitors; hit rate 1.2% among 300,000; AID 540256; active means well fitted inhibition curve with a large enough effect; inconclusive means small, poorly fitted or top-dose-only effect, or effect the other way; inactive means flat fitted curve, though single readings scatter; tested in HEK293 cells; note: % is set by controls: 0 for no effect and ±100 for the full control effect; nearly all actives have a fitted effect of over 50% in size; luciferase read-out
RE007 growth inh: less growth of the S. pombe RE007 Vpr strain; Potency, µM (doses to about 92.2 µM), without a hit: at the top dose activity change, negative = less growth; S. pombe RE007 Vpr strain, BacTiter-Glo ATP luminescence, 24 h; control for the full effect not named in the record; hit rate 0.21% among 360,000; active = well fitted falling curve with a large enough effect; inconclusive = small, poorly fitted or top-dose-only effect; inactive = no such curve, though single readings can be large or run the other way;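 note: % is set by controls: 0 for no effect and ±100 for the full control effect; nearly all actives have a fitted effect of over 50% in size; the assay follows cell death caused by Vpr and the record does not say whether a fall means rescue or toxicity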
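Fission yeast RE007 carrying one integrated HIV-1 vpr copy, seeded at OD 0.01 in PMG+AL medium with 23 nL pinned compound. Grown 24 h at 30 degrees; viability read by BacTiter-Glo luminescence after 5 min.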
SARS PLP yeast: blocks SARS-CoV papain-like protease in a yeast assay | S. cerevisiae expressing SARS-CoV PLpro, growth rescue; control for the full effect not named in the record | Potency, µM (series often up to 32.9 µM), for the others: at the highest dose activity, positive = growth rescue | hit rate 0.19% among 330,000 | AID 485353; active means well fitted rising curve with a large enough effect; inconclusive means small, poorly fitted or top-dose-only effect; inactive means no such curve, though single readings can be large or run the other way; note: 0% is about no effect; nearly all actives have a fitted effect of over 55% in size; growth read by luminescence after 48 h
NS1 inh: inhibitors of influenza NS1 protein function. S. cerevisiae slowed by influenza A NS1, growth recovery by OD600. Potency, µM (titrated, usually from 46.1 µM), inactives show top-dose activity, positive = more growth. hit rate 0.4% among 270,000; active means well fitted rising curve with a large enough effect; inconclusive means small, poorly fitted or top-dose-only effect; inactive means no such curve, though single readings can be large or run the other way; note: nearly all actives have a fitted effect of over 50% in size
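In this qHTS, NS1 from influenza A is expressed in budding yeast, where it slows growth. Cells are switched from glucose to 2% galactose medium (pH 6.0, -URA), treated with compound, and growth recovery is read at OD600.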
Cruzain noTriton: blocks cruzain activity in detergent-free assay; P25779; AID 1476; hit rate 2.3% among 200,000; Potency, µM, without a hit: max response, negative = inhibition, usual class: inhibitors; purified cruzain, Z-FR-AMC fluorescence, no detergent;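 note: plate controls were enzyme without inhibitor for no effect and buffer without enzyme for full effect; nearly all actives have a fitted effect of over 40% in size; top concentration of the series not given in the record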
Target sequence (P25779 123-467 limits assumed): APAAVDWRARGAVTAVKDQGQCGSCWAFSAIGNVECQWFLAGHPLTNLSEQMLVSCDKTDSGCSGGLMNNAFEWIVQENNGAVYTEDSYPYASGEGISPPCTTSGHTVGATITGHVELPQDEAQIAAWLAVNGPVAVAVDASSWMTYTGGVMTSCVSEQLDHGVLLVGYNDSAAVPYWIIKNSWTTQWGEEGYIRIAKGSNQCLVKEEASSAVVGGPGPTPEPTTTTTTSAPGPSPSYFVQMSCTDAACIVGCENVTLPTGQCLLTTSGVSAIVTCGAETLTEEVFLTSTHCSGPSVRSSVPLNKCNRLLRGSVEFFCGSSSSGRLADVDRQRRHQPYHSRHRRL
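Purified cruzain at 1.5 nM, pre-incubated 15 min with compound at room temperature in 100 mM sodium acetate pH 5.5, 5 mM DTT, 0.00005% Triton X-100. Reaction started with 2 uM Z-FR-AMC; AMC fluorescence increase over 60 s gives rate.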
Cruzain Triton: blocks cruzain activity in presence of Triton detergent. P25779. purified cruzain, Z-FR-AMC fluorescence, 0.01% Triton. Potency, µM, for inactives: max response, negative = inhibition, usual class: inhibitors. hit rate 0.43% among 200,000;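 note: plate controls were neutral wells for no effect and buffer without enzyme for full effect; nearly all actives have a fitted effect of over 40% in size; top concentration of the series not given in the record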
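Enzyme 1.5 nM, Z-FR-AMC 2 uM, NaOAc 100 mM pH 5.5, DTT 5 mM, Triton X-100 0.01%; 15 min RT compound preincubation; kinetic ex360/em450, 60 s delta.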
Active calls of the source: *; ? = inconclusive; nt = no result given; [ ] = another dose, or the depositor's remark. Unless noted, calls come from the whole dose curve; as a rule, active = well fitted curve in the direction sought with a large enough effect; inconclusive = small, poorly fitted or top-dose-only effect, or another doubt; inactive = no such curve, though single readings can be large; an effect the other way counts as inactive or inconclusive. Potency is the fitted concentration of half-maximal effect.

SMILES	StopGo reporter	Marburg entry inh	LASV entry inh	RE007 growth inh	SARS PLP yeast	NS1 inh	Cruzain noTriton	Cruzain Triton
Cc1ccc(C(=O)CC2(O)C(=O)N(Cc3ccccc3)c3ccccc32)c(C)c1 (stereo not given)	-15%	-17%[46.1 µM]	-18%[46.1 µM]	nt	nt	nt	-5%	-8.4%
CCc1ccc(NC(=O)Cc2csc(COc3cccc(C)c3)n2)cc1	-11%	1%[46.1 µM]	-9%[46.1 µM]	nt	nt	nt	-10%	-7.8%
O=S(=O)(NCCc1csc(-c2cccnc2)n1)c1ccc(F)cc1	17%	-13%	2%	-1%	-3%	-43%	nt	nt
COc1ccc(CNC(=O)CCc2nnc3ccc(NCCCN4CCCC4=O)nn23)cc1	18%	-1%[46.1 µM]	?	4%	-7%	3%	nt	nt
Cc1noc2ncnc(N3CCCC(C(=O)NC(C)C)C3)c12 (stereo not given)	-16%	nt	16%[46.1 µM]	nt	nt	nt	-23%	-0.9%
COc1ccc(CC(=O)NCC(c2cccs2)S(=O)(=O)c2ccc(F)c(C)c2)cc1 (stereo not given)	-4%	nt	?	nt	nt	nt	-1%	-4.5%
Cc1ccc(NC(=S)NCCc2ccccc2)nc1	0%	-3%[46.1 µM]	0%[46.1 µM]	-8%	0%	nt	nt	nt
O=C(c1cc2ccccc2o1)N1CCOCC1	22%	?	?	1%	1%	nt	nt	nt
COc1ccc(OC)c(NC(=O)CC(NC(C)=O)c2ccccc2)c1 (stereo not given)	-17%	-11%[46.1 µM]	1%	15%	-4%	nt	nt	nt
O=C(CSc1n[nH]c(-c2cccnc2)n1)Nc1cccc(Cl)c1	-3%	4%[46.1 µM]	11%	-1%	0%	11%	nt	nt
COC(=O)c1ccc(-n2c(C)cc(/C=N/Nc3nc(C)cc(=O)[nH]3)c2C)cc1	-13%	nt	nt	10%	0%	8%	nt	nt
CC(C)(C)C(=O)C(Cc1ccccc1Cl)n1cncn1 (stereo not given)	-15%	-16%[46.1 µM]	-14%	-7%	-33%	-187%	7%	4.9%
NC(=O)c1ccc(-n2nnnc2SCc2ccc(F)cc2)cc1	-25%	-18%	-8%	-15%	-1%	5%	17%	1.8%
COc1cc2c(cc1NC(=O)Nc1cccc(C)c1)oc1ccccc12	4%	0%	-6%	4%	-4%	2%	?	18%
CCn1c(=O)cc(OCC(=O)N2CCCCCC2)c2ccccc21	-13%	-2%	-10%	-12%[3.69 µM]	0%	3%	1%	1.0%
COC(=O)[C@@H]1CCCN1Cc1c(C(=O)N2CCOCC2)nc2c(C)cccn12	13%	0%[46.1 µM]	5%[46.1 µM]	-4%	1%	2%	nt	nt
CCOc1cccc(C2/C(=C(/O)c3ccc4c(c3)CC(C)O4)C(=O)C(=O)N2CCN2CCOCC2)c1 (stereo not given)	-9%	?	12%[46.1 µM]	-11%	19%	4%	nt	nt
COC(=O)c1ccc(C)c(NC(=O)c2ccc(Cn3cc([N+](=O)[O-])cn3)o2)c1	-11%	?	17%	9%	7%	-5%	-6%	-5.3%
COc1ccc(/C=C\C(=O)NCc2ccc3c(c2)cc(C)n3C)cc1OC	-8%	-22%	4%	-14%	10%	11µM*	13%	-9.2%
CCn1c(-c2ccc(C(C)(C)C)cc2)n[nH]c1=S	-3%	-3%	-29%	-3%	0%	-49%	5%	-8.6%
O=C(Oc1ccc(-c2nnco2)cc1)C1CCN(C(=O)c2ccc(F)cc2)CC1	-12%	13%	2%	1%	5%	0%	nt	nt
COc1cc(-c2cc(C(=O)Nc3ccccc3N3CCOCC3)c3ccccc3n2)cc(OC)c1OC	?	?	?	1%	2%	3%	nt	nt
COC(=O)c1ccccc1NC(=O)NC1CC1	-2%	nt	nt	21%	0%	0%	nt	nt
CN(C)C=NC(=O)c1cccn1-c1ncc(C(F)(F)F)cc1Cl	-5%	0%[46.1 µM]	22%[46.1 µM]	5%	-4%	nt	nt	nt
CC(C)C[C@H](NC(=O)OC(C)(C)C)C(=O)N1CCC(C(=O)O)CC1	-25%	3%	?	39%	1%	-14%	8%	2.4%
CC(C)c1cc(C(=O)N/N=C/c2ccoc2)c(O)c(C(C)C)c1	16%	nt	nt	16%	1%	-13%	nt	nt
O=C(CCCc1ccccc1)N1CCN(c2ccc([N+](=O)[O-])cc2)CC1	0%	0%	0%	0%	-5%	-12%	-5%	-7.7%
COc1cccc2cc(C(=O)NCCc3ccccc3)oc12	36%[activator]	nt	nt	-12%	6%	3%	nt	nt
CC1CCCCN1C(=O)c1cc2nc(-c3ccccc3)cc(-c3ccccc3)n2n1 (stereo not given)	61%[activator]	?	-26%	-21%	-38%	-14%	-20%	-7.1%
O=c1[nH]c(CSc2ccccn2)nc2ccccc12	-3%	?	-5%[46.1 µM]	-4%	-4%	nt	nt	nt
FC(F)(F)c1nc(-c2ccccc2)ncc1-c1nnnn1-c1ccccc1	?	?	?	1%	-8%	-31%	nt	nt
CCOC(=O)Cc1csc(NC(=O)C(C)(C)C)n1	53%[activator]	?	6%	3%	-1%	-5%	-3%	8.0%
Cc1ccc(/C=C2\SC(=S)N(CCCC(=O)Nc3ccccn3)C2=O)cc1	?	?	2.2µM*	-9%	3%	-6%	?	-1.2%
Cc1cc(C)nc(SCc2nnc(SCC(=O)NCc3ccco3)n2-c2ccccc2)n1	9%	29%	6%	-10%	0%	-7%	3%	2.5%
O=C1CC(C(=O)Nc2ccc(Cl)cc2[N+](=O)[O-])C2(CCCCC2)O1 (stereo not given)	-18%	?	0%	4%	15%	-1%	13%	-1.8%
CCOC(=O)c1c(NC(=O)C2C3C=CC(C3)C2C(=O)O)sc2c1CCCC2 (stereo not given)	-10%	?	20%[46.1 µM]	-8%	1%	1%	nt	nt
Cc1nc(N2CCC(C)CC2)c2c(C)c(C(=O)O)sc2n1	-4%	8%	3%	4%	-11%	-39%	-5%	-13%
O=[N+]([O-])c1cccnc1Sc1ccc(F)cc1	12%	-10%[46.1 µM]	-23%	11%	nt	nt	nt	nt
Cc1cccc(Nc2ncnc3onc(-c4ccc(F)cc4)c23)c1C	-24%	nt	nt	10%	-8%	-42%	nt	nt
Clc1ccccc1OCc1nc(-c2ccncc2)no1	37%[activator]	?	-20%	-1%	-17%	-67%	-3%	1.9%
COc1cccc(NC(=O)Cc2c(O)c3ccccc3[nH]c2=O)c1	-19%	-2%	0%	19%	20%	-7%	-9%	-2.8%
CC(=O)CSc1nnc(-c2ccc(S(=O)(=O)N3CCCC3)cc2)n1C	1%	7%	4%	-13%	0%	0%	nt	nt
CCOc1ccc(-c2cc(C(=O)N3CCN(c4cccc(C(F)(F)F)c4)CC3)c3ccccc3n2)cc1	5%	nt	?	nt	nt	nt	-3%	0.0%
NC(=S)NNc1ccnc2cc(Cl)ccc12	-15%	?	9%	-1%	-4%	nt	nt	nt
Cc1cccc(N2CCN(Cc3ccc(Br)o3)CC2)c1C	-13%	nt	nt	26%	-7%	-34%	nt	nt
CN(CC(=O)Nc1ccc(Cl)cc1)C(=O)c1cc(-c2cccs2)nn1-c1ccccc1	-14%	-9%	3%	0%	nt	nt	nt	nt
Cc1cc(C)n(CCCN2CCC(C(=O)Nc3cccc(-c4cccc(F)c4)c3)CC2)n1	?	13µM*	-8%	4%	-3%	0%	nt	nt
O=C(Cn1c(=S)nc2ccccn21)N1CCc2ccccc2C1	48%[activator]	15%	10%	1%	-6%	8%	-3%	4.3%
CCOC(=O)Cc1nc2nc(C)cc(C)n2n1	6%	-5%[46.1 µM]	nt	1%	-2%	3%	nt	nt
COc1ccc(-n2c(C)nnc2SCC(=O)Nc2ccccc2F)cc1	9%	13%[46.1 µM]	-22%	10%	1%	1%	nt	nt
CN(C(=O)CSc1nc(N)c2c3c(sc2n1)CSC(C)(C)C3)c1ccccc1	-28%	-16%	?	5%	-11%	16%	-5%	-7.0%
COCCCn1c(SCC(=O)NCc2ccccc2)nc2c(sc3ccccc32)c1=O	-6%	nt	10%[46.1 µM]	nt	nt	nt	?	-0.3%
Cc1ccc(C)c(Cn2c(O)c(N=NC(=S)Nc3ccccc3F)c3ccccc32)c1	0%	?	?	6%	1%	nt	nt	nt
COc1ccc(N=C2NC(=O)C(CC(=O)NCCc3ccc(OC)c(OC)c3)S2)cc1 (stereo not given)	-5%	15%[46.1 µM]	?	-19%	0%	nt	nt	nt
O=C(Cc1c[nH]c2ccccc12)NCc1ccc(Cl)cc1Cl	26%	?	1%	-11%	-18%	-23%	-14%	-16%
O=C(CNC(=O)c1ccco1)OCN1C(=O)c2ccccc2C1=O	-3%	0%	1%	11%	5%	-4%	?	20µM*
COc1ccccc1C(=O)C1CCCN(Cc2ccc3c(c2)OCCO3)C1 (stereo not given)	-13%	?	0%	-9%	1%	2%	nt	nt
COc1ccc2c(ccc[n+]2CC(=O)c2ccc(C)cc2)c1	-26%	nt	?	-5%	0%	1%	nt	nt
COC(=O)CNc1nc(C2CC2)nc2c1nnn2Cc1ccccc1Cl	-21%	-11%	6%	16%	6%	-20%	-4%	-8.1%
Cc1ccccc1N1CCN(C2CCCN(C(=O)c3noc4c3CCCC4)C2)CC1 (stereo not given)	-26%	?	?	-3%	-4%	6%	nt	nt

(listing goes on)
SMILES	StopGo reporter	Marburg entry inh	LASV entry inh	RE007 growth inh	SARS PLP yeast	NS1 inh	Cruzain noTriton	Cruzain Triton
O=C(CSc1nc(Nc2ccc(F)c(F)c2)c2ccccc2n1)c1ccc(Cl)cc1	?	nt	-18%[46.1 µM]	nt	nt	nt	-25%	-1.7%
O=C(NC1CCCCC1)c1ccc(S(=O)(=O)c2ccccc2)cc1	-28%	?	?	5%	-1%	-5%	nt	nt
COc1cccc2cc(C(=O)OC3CCN(C)CC3)c(=O)oc12	3%	10%	-5%	-11%	4%	4%	-26%	-3.7%
COCCNC(=O)Cn1cc(C(=O)c2ccco2)c2ccccc21	22%	8%	-2%	3%	1%	nt	nt	nt
COC(=O)c1cc(S(=O)(=O)NCC2CCN(Cc3ccc(Cl)cc3)CC2)cn1C	-9%	nt	nt	-10%	4%	13%	nt	nt
